Screens deposited in PubChem BioAssay by National Center for Advancing Translational Sciences (NCATS).
Menin MLL FP FL: menin-MLL binding inhibition, fluorescein peptide | Fluorescence polarization, fluorescein-MLL peptide displacement from menin | FP activity change, % at 61.4 µM | AID 1766 | 290,000 tested, under 10 active; inconclusive = falling polarisation curve, or a change in total fluorescence; inactive = total fluorescence flat and polarisation flat or rising; no compound was filed as active; the % refers to the polarisation; negative = inhibition;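 also: % of control where 0% means no effect; inhibitors lower the polarisation; unlabelled MLL peptide was the positive control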
Sfp PPTase inh: Sfp phosphopantetheinyl transferase inhibition; hit rate 3.5% among 310,000; Q9F4F7; Potency, µM, without a hit: max response, negative = inhibition, actives largely listed as inhibitors; Biochemical Sfp PPTase activity, qHTS; active = well fitted inhibition curve with a large enough effect; inconclusive = small, poorly fitted or top-dose-only effect, or another doubt; inactive = no such curve, though single readings can be large or run the other way;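 also: the enzyme is Sfp with the accession as filed and its product quenches rhodamine fluorescence; potency is read from the fitted curve at half-maximal effect; 0% = enzyme reaction without inhibitor and -100% = no enzyme wells; top concentration of the series not given in the record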
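Buffer: 50 mM Hepes-Na pH 7.6, 10 mM MgCl2, 0.01% Nonidet P-40, 0.01% BSA. Enzyme 15 nM, pre-exposed to compound 15 min; substrates then added and fluorescence change tracked over 30 min.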
gsp ag: agonists of gsp mutant (McCune-Albright syndrome); gsp mutant cells, cAMP HTRF, 30 min; control for the full effect not named in the record; Potency, µM (top dose mostly 76.9 µM), inactives show at the top dose activation (cAMP increase), actives largely listed as activators; hit rate 0.13% among 340,000; active = well fitted activation curve with a large enough effect; inconclusive = small, poorly fitted or top-dose-only effect, or another doubt; inactive = no such curve, though single readings can be large or run the other way; cell line not stated here;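 also: phosphodiesterase inhibitor Ro 20-1724 added with compounds to block cAMP breakdown; potency is read from the fitted curve at half-maximal effect; nearly all actives have a fitted effect of over 60% in size; about a fifth of the inactives were tested at one dose only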
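Cells stably selected in G418 were plated at 2000/well, grown 16-24 hr, then given compounds in DMSO with the PDE inhibitor […] (300 uM solution added) for 30 min at 37C; cAMP was read by HTRF.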
gsp antag: antagonizes gsp, the McCune-Albright syndrome mutation | gsp-mutant cells, cAMP HTRF, 30 min; control for the full effect not named in the record | Potency, µM (series often up to 76.9 µM), for inactives: at the highest dose activity change, negative = inhibition, most hits filed as inhibitors | hit rate 0.4% among 340,000 | AID 624288; active = falling curve of any shape with a large fitted effect; inconclusive = falling curve, mostly with a smaller effect; inactive = flat or rising curve; cell line not stated here;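 also: intracellular cAMP measured with PDE inhibitor Ro 20-1724 present during compound exposure; potency is read from the fitted curve at half-maximal effect; % is scaled to controls: 0 for no effect and ±100 for the full control effect; nearly all actives have a fitted effect of over 65% in size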
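HTRF cAMP read-out (cAMP-d2 plus anti-cAMP antibody-K in lysis buffer, 30 min RT). Before lysis, cells are exposed to compounds with […] for 30 min at 37C in DPBS containing Ca/Mg, BSA and Tween 20.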
D2 ag: activates the human D2 dopamine receptor. activation, % (no concentration beside the values). hit rate 0.084% among 360,000. DiscoveRx PathHunter D2 beta-arrestin, luminescence, 90 min; 100% = 57 uM dopamine signal. P14416. AID 624465; in the data active = activation above about 40%; inconclusive = about 15% to 40%; inactive = below about 15%; also: compound concentration not given in the record; the text of the record calls up to 30% inactive
Target sequence (P14416 whole entry, looked up): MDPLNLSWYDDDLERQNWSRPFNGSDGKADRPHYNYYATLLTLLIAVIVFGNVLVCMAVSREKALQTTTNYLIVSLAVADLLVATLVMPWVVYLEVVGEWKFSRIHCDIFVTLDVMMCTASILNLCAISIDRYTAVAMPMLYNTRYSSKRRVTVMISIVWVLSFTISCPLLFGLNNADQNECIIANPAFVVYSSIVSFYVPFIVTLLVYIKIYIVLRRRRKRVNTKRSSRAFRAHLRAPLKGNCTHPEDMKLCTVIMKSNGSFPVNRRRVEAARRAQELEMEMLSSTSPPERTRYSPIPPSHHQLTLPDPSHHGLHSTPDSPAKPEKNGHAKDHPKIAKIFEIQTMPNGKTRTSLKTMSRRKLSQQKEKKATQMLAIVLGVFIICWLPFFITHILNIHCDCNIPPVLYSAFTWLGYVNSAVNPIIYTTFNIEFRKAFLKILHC
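Agonist mode: compounds alone added to overnight-plated D2 PathHunter cells for 90 min at 37 C, with 57 uM final dopamine (EC100) defining full response. Beta-arrestin recruitment detected by chemiluminescent reagent, read after 1 h at ambient temperature.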
PINK1 expr mod: modulators of PINK1 expression; PINK1 immunofluorescence, high-content cytometry, 24 h; Potency, µM (top dose mostly 76.6 µM), inactives show top-dose activation (PINK1 increase), most hits filed as activators; hit rate 0.2% among 410,000; AID 624263; active = well fitted activation curve with a large enough effect; inconclusive = small, poorly fitted or top-dose-only effect; inactive = flat fitted curve, though single readings scatter; cell line not stated here;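 also: potency is read from the fitted curve at half-maximal effect; % of control where 0% means no effect; nearly all actives have a fitted effect of over 65% in size; a mitochondrial uncoupler was the plate control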
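Cells are seeded, rested 12 hours, then given compound at five concentrations or DMSO for 24 hours. After fixation, blocking and antibody staining, PINK1 amount and mitochondrial localization are scored; CCCP serves as control.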
ClpP mod: qHTS Assay for Activators of ClpP; AID 651965, 2013; hit rate 1.9% among 340,000; Potency, µM (doses to about 57.5 µM), for inactives: top-dose activity change, negative = active; ATP-dependent Clp protease proteolytic subunit (Bacillus subtilis (strain 168)), P80244; purified B. subtilis ClpP, FRET peptide cleavage, 20 min; active = well fitted falling curve with a large enough effect; inconclusive = small, poorly fitted or top-dose-only effect; inactive = no such curve, though single readings can be large or run the other way; also: potency is read from the fitted curve at half-maximal effect; the source files actives as falling curves though it sought activators and does not explain the sign; nearly all actives have a fitted effect of over 65% in size; many hits overshoot -100%
Target sequence (P80244 whole entry, looked up): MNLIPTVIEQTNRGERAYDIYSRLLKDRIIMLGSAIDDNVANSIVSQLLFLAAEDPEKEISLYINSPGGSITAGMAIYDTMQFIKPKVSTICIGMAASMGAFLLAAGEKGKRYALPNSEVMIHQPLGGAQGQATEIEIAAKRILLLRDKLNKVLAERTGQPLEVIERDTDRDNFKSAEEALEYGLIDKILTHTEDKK
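FRET quenching reversal measured ClpP activation: 10 microg/mL B. subtilis ClpP at pH 8 with the FRET-FV decapeptide, read at 430 nm after 320 nm excitation. The 20-min minus 0-min signal was scaled between DMSO/no-enzyme wells and ADEP (5.8 microM final).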
* hit, by the source's call; ? = inconclusive; / = not tested or not shown; [ ] = remark or other dose.

The first three compounds, to show the layout:
Each structure is followed by: Menin MLL FP FL	Sfp PPTase inh	gsp ag	gsp antag	D2 ag	PINK1 expr mod	ClpP mod
O=C(c1ccccc1)N1CCN(c2nc3ccc([N+](=O)[O-])cc3s2)CC1
  ?	14%	-87%[inhibitor]	-9%	-3.6	5.3%	1.2%
COc1ccc(/C=N/Nc2ncnc3c2[nH]c2ccccc23)c(OC)c1OC
  -1.3	-9%	6%	9%	-0.8	4.3%	5.3%
COc1ccccc1/C=C(/CC(=O)NCc1ccc2c(c1)OCO2)c1nc2ccccc2s1
  10	4%	3%[15.4 µM]	?	0.6	-1.1%	/

This part in full (from the top)
Each structure is followed by: Menin MLL FP FL	Sfp PPTase inh	gsp ag	gsp antag	D2 ag	PINK1 expr mod	ClpP mod
O=C(c1ccccc1)N1CCN(c2nc3ccc([N+](=O)[O-])cc3s2)CC1
  ?	14%	-87%[inhibitor]	-9%	-3.6	5.3%	1.2%
COc1ccc(/C=N/Nc2ncnc3c2[nH]c2ccccc23)c(OC)c1OC
  -1.3	-9%	6%	9%	-0.8	4.3%	5.3%
COc1ccccc1/C=C(/CC(=O)NCc1ccc2c(c1)OCO2)c1nc2ccccc2s1
  10	4%	3%[15.4 µM]	?	0.6	-1.1%	/
CCC(CC)C(=O)N1N=C(c2ccc(NS(C)(=O)=O)cc2)CC1c1ccccc1 (stereo not drawn)
  3.1	-9%	-45%[inhibitor]	?	-3.0	1.0%	3.3%
CCCOC(=O)c1c(-c2ccc(OC)cc2)oc2ccc(-c3ccc(OC)nc3)cc12
  4.0	-3%	-12%	1%	-4.5	4.5%	4.1%
O=C1CC(C(=O)Nc2cccc(F)c2)n2c(nc3ccccc32)N1 (stereo not drawn)
  8.4	-8%	6%[15.4 µM]	8%	4.3	15%	/
O=C1C[C@H]2CCCCC(=O)N3CC[C@@H](C1)[C@@H]23
  -4.2[138 µM]	-8%	/	8%	-1.7	-0.6%	-1.8%
COc1ccc(CCNC(=O)c2oc3ccccc3c2C)cc1
  /	/	-7%	-14%	-2.0	0.4%	0.1%
OC[C@@H]1CN(Cc2ccccc2)C[C@H](n2cnc3c(NCc4ccc(F)cc4)ncnc32)O1
  /	/	/	/	3.4	3.5%	-1.2%
c1ccc2c(c1)CCN(c1nc3cc4c(cc3s1)OCO4)C2
  1.9	?	?	5%	-2.9	-2.2%	-3.1%
CCCNC(=O)c1onc(CSc2cccc(OC)c2)c1C(=O)NCCC
  -1.0	-14%	/	-6%	-1.4	-0.7%	-0.8%
Cc1c(C=O)c2ccccc2n1CCOc1ccccc1
  4.2	-1%	5%	-8%	0.0	3.5%	-1.9%
CC(=O)Nc1ccc(NC(=O)C2(C)Cc3c(-c4ccc5c(c4)OCO5)ccnc3O2)cc1 (stereo not drawn)
  /	/	/	/	-2.3	0.3%	4.8%
Cc1cccc(C)c1NC(=O)C(C)c1ccc(-c2ccccc2)c(F)c1 (stereo not drawn)
  0.9	-7%	-14%	-11%	-1.7	2.4%	-0.2%
CC(C)CCNC(=O)CN(Cc1ccc2c(c1)OCO2)C(=O)Cn1nnc(-c2cccs2)n1
  1.7	?	-37%	-8%	2.7	1.9%[38.3 µM]	0.6%
CC1=C(C(=O)Nc2cccc(C(=O)N3CCN(c4cccc(C(F)(F)F)c4)CC3)c2)SCCO1
  /	9%	1%	50µM*	-3.1	0.6%	1.1%
O=C(O)c1ccc(NC(=O)c2ccc(Cl)cc2)c(NC(=O)c2ccc(Cl)cc2)c1
  0.9	7%	-3%[15.4 µM]	-1%	0.1	-0.6%	-1.1%
Cc1cc(C)n2nc(C(=O)Oc3ccc4c(c3)OCO4)nc2n1
  2.6	-4%	?	3%	-3.4	-0.3%	0.1%
COC(=O)c1ccccc1NC(=S)N1CCC(N2CCCCC2)CC1
  -0.8	-6%	-4%	7%	0.9	-1.7%	-8.7%
CN(Cc1ccccc1)C(=O)c1ccccc1Br
  -4.8	-17%	29%	6%	1.4	-2.7%	-4.7%
CN1CCN(c2ccc(NC(=O)c3cccc(OCc4ccccc4)c3)cc2)CC1
  1.9	-15%	4%	5%	-1.5	7.8%	-4.1%
NC(c1csc(NC(=O)Nc2cccc(Cl)c2)n1)c1ccccc1Cl (stereo not drawn)
  /	/	/	/	0.2	0.9%	-10%
O=S(=O)(NC(=S)NC1CCCCC1)c1ccc(Br)cc1
  0.8	-7%	12%[15.4 µM]	-9%	-12	2.9%	/
COc1cc(/C=N/Nc2ccc(C)cc2)cc(Br)c1O
  -0.3	?	-3%[15.4 µM]	18%	-1.8	7.6%	/
Cc1ccccc1C(=O)Nc1nc(-c2cccnc2)cs1
  7.8	-16%	-43%[inhibitor]	5%	1.1	3.0%	-2.1%
COc1ccc2cc(Br)ccc2c1CC(=O)NC(C)(C)C
  3.2	?	?	4%	-2.5	4.7%	0.6%
COCCCNC(=S)NNC(=S)Nc1ccc(F)cc1F
  4.7	79µM*	-8%	-8%	-2.3	10%[38.3 µM]	0.0%
COc1ccc(C(=O)COC(=O)CCN2C(=O)C3CC=CCC3C2=O)c(OC)c1 (stereo not drawn)
  /	/	-23%[15.4 µM]	-15%	5.6	1.8%	1.1%
CCOc1ccc(N2Nc3n[nH]c(N)c3N2)cc1
  2.8	12%	-17%	20%	-6.5	0.0%	1.9%
Cc1ccc(N2CCN(CC(O)COc3cccc(C)c3)CC2)cc1 (stereo not drawn)
  -5.4	-6%	-27%	4%	1.3	9.6%	0.0%
CCc1ccc(CNC(=O)c2ccc(OC)c(OC3CCN(C(C)C)CC3)c2)nc1
  /	12%	30%[15.4 µM]	-2%	4.2	0.6%	-4.1%
Cc1ccc(NC(=O)COC(=O)c2c(-c3ccccc3)noc2C)c(C)c1
  /	/	-10%	3%	-1.9	8.5%	2.4%
Cc1ncoc1C(=O)N1CCCC(C(=O)c2cccc3ccccc23)C1 (stereo not drawn)
  -2.2	-7%	29%	0%	-2.6	-1.3%	-1.3%
Cc1ccc(-c2noc(C3CCCN(C(=O)c4ccc(Cl)cc4)C3)n2)o1 (stereo not drawn)
  -6.3	10%	-14%[15.4 µM]	-6%	-2.4	-1.4%	/
COc1ccc(C2Nc3ccccc3C(=O)N2NC(C)=O)cc1OC (stereo not drawn)
  -1.6	12%	-8%	11%	-4.6	1.5%	4.0%
Cc1nn2c(-n3ccnc3C)c3c(nc2c1-c1ccccc1)CCC3
  1.5	9%	?	-12%	1.4	3.9%[38.3 µM]	-4.2%
OC(CN1CCOCC1)(c1ccccc1)c1ccccn1 (stereo not drawn)
  0.7	-3%	21%[15.4 µM]	-11%	-2.0	-0.5%	53%
Cn1cnnc1SCC(=O)Nc1ccc(F)cc1F
  5.9	4%	0%	3%	0.3	-2.4%	/
Cc1ccc(C(C)(O)CS(=O)(=O)Cc2ccccc2)cc1 (stereo not drawn)
  -7.1	1%	-6%	3%	-5.1	2.2%	/
CCOC(=O)C1=C(C)NC(=NC)SC1c1ccccc1 (stereo not drawn)
  2.0	15%	-2%[15.4 µM]	-5%	-2.5	1.4%	/
Cc1ccccc1OC(C)C(=O)NCc1cccnc1 (stereo not drawn)
  -2.8	12%	15%	6%	0.1	0.2%	-2.6%
COc1ccc(CNC(=O)[C@H](Cc2c[nH]c3ccccc23)NC(C)=O)cc1OC
  -0.6	5%	33%	8%	-7.6	0.6%	/
COc1ccc(NC(=O)CS(=O)c2ccc(F)cc2)cc1 (stereo not drawn)
  /	19%	?	7%	-4.6	2.1%	0.1%
O=C(CCN1C(=O)C2C3CCC(C3)C2C1=O)Nc1ccc([N+](=O)[O-])cc1 (stereo not drawn)
  -2.4	13%	0%[15.4 µM]	1%	-4.9	3.2%	/
COc1ccccc1CCNC(=O)Cn1c(=O)oc2ccccc21
  /	-20%	?	3%	-1.5	-0.4%	-0.1%
O=C(CCc1ccccc1)NNc1cc(N2CCCCC2)nc(N2CCCCC2)n1
  7.0	3%	-7%[15.4 µM]	4%	-9.0	10%	-1.5%
ClCCCc1cn(C[C@H]2CC[C@@H]([C@@H]3CC[C@H](Cn4cc(CCCCl)nn4)O3)O2)nn1
  0.8	-3%	?	5%	-3.5	-0.1%	-1.4%
CCOc1ccc(CSC2=NCCN2)cc1[N+](=O)[O-]
  -1.8	?	5%[15.4 µM]	-9%	-3.6	0.0%	/
CC(C)NC(=O)c1cc(C2CCCCN2C(=O)c2ccc(C#N)cc2)on1 (stereo not drawn)
  /	/	/	/	-0.6	-0.8%	-1.1%
S=c1[nH]nc(COc2ccccc2)n1/N=C/C(Cl)=C/c1ccccc1
  -1.3	56µM*	-17%	0%	-4.4	-3.4%	0.5%
COc1ccc(NC(=O)CSc2nc3ccccc3nc2N2CCCC2)cc1
  -2.3	?	?	-2%	0.9	4.8%	15%
CCN(CC(=O)NCc1ccc(Cl)cc1)C(=O)COc1ccc(Cl)cc1Br
  /	/	11%	-16%	-2.9	4.9%	-0.4%
O=C(NCc1ccc(Cl)cc1)N1CCOCC1
  5.3	15%	-8%[15.4 µM]	-7%	0.9	1.7%	-2.0%
Cc1cccc(NC(=O)c2ccc(C3SCC(=O)N3CCc3ccccc3)cc2)c1C (stereo not drawn)
  5.8	-2%	17%	-23%	1.3	-5.3%	0.0%
CCCNc1c(NC(=O)C2CCC(C)CC2)c(=O)oc2ccccc12 (stereo not drawn)
  /	5%	-14%	-3%	-2.6	-2.0%	-6.8%
Cn1cnnc1SCC(=O)NCc1ccccc1
  -5.5	0%	4%[15.4 µM]	10%	-3.1	0.5%	-6.8%
